# From PubChem
# CBX7 inh – blocks human CBX7 binding to H3K27me3 peptide. O95931. AlphaScreen His6-CBX7 / biotin-H3K27me3 peptide binding; hits give low values. normalised signal (fraction of DMSO) (no concentration beside the values). 66,000 compounds, 1.1% hits. AID 1224903; in the data active = normalised signal below about 0.5;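 also: 100 nL library stock added to about 20 µL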
# Target sequence (O95931 whole entry, looked up): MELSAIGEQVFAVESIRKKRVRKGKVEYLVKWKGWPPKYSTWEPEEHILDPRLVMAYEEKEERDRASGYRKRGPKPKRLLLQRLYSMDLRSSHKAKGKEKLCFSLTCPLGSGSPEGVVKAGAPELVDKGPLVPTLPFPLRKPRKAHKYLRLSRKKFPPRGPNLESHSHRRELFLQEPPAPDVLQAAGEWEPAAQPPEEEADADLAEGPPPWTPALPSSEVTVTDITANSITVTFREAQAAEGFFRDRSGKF
# CBX7 inh z-score – further read-out of CBX7 inh, marked with its call; z-score; measured here: z-score of CBX7 signal; some inactives read as strong as hits; reference of the scale not given here;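 same signal on another scale; lower means less binding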
# Numbers without * were called inactive; & = joins results of further samples.
SMILES,CBX7 inh,CBX7 inh z-score
Cc1ccc(-c2cc(C(=O)NCc3cccnc3)c3ccccc3n2)cc1C,1.1,0.81
COc1cc(NC(=O)Cn2cc(S(=O)(=O)c3ccccc3)c(=O)c3cc(C)ccc32)cc(OC)c1,0.84,-2.3
CCN1CCCC1CNC(=O)c1ccc2c(c1)N(Cc1ccccc1)C(=O)c1ccccc1S2=O (stereo not drawn),1,0.062
O=C(Cn1cc(S(=O)(=O)c2ccc(F)cc2)c(=O)c2ccccc21)Nc1ccc2c(c1)OCO2,1,-0.024
O=C(c1ccc(Cl)c(NC2=NC3CS(=O)(=O)CC3S2)c1)N1CCN(c2ccccn2)CC1 (stereo not drawn),1.1,1.5
CCCN1CCN(C(=O)c2cc3c(-c4ccc(OC)c(OC)c4)nn(C)c3s2)CC1,0.96,-1.1
CCOC(CNC(=O)c1ccc2c(c1)ncn2-c1ccccc1OC)OCC,1.1,1.8
CCOc1ccc(NC(=O)CNC(=O)c2cn(-c3ccccc3OC)c(=O)c3ccccc23)cc1,1.1,1.4
O=C(C1CC1)N1CCc2cc(Br)cc(S(=O)(=O)NCCN3CCOCC3)c21,0.98,-0.73
COc1ccc(CN(C(=O)c2oc3cc(C)ccc3c2C)C2CCS(=O)(=O)C2)cc1 (stereo not drawn),0.85,-1.7
CCCN(CCC)CCNc1c(NC2CCN(C(=O)OCC)CC2)c(=O)c1=O,1,0.043
Cc1cccc(C(=O)N(Cc2cccs2)C2CCS(=O)(=O)C2)c1 (stereo not drawn),1.2,1.7
COc1cccc(-c2nc(CSCC(=O)NCCC(C)C)c(C)o2)c1,1,0.28
Cc1ccc(Cl)cc1N1CCN(C(=O)C2CCN(S(=O)(=O)c3cccnc3)CC2)CC1,1,1.6
CN1CCN(CCCNC(=O)c2cn(C3CCCC3)c(=O)c3c2c2ccccc2n3C)CC1,1.1,3.1
CCn1c(C(=O)N2CCC(C(=O)NCCN(CC(C)C)CC(C)C)CC2)cc2sccc21,0.94,-0.25
Cc1ccc(-c2nc(CS(=O)(=O)CC(=O)NCc3ccc(Cl)cc3)c(C)o2)cc1,0.96,-0.087
Cc1cccc(-c2nc(C(=O)NCCCN3CCOCC3)c(C)o2)c1,1,0.35
CCC(=O)N1CCc2cc(S(=O)(=O)NCC(OC)OC)ccc21,1.1,1.1
O=C(NCCc1ccccc1)c1ccc2c(c1)NC(=O)C1CCCN21 (stereo not drawn),1,-0.021
Cc1ccc2nc(C)cc(Nc3cccc(C(F)(F)F)c3)c2c1,0.99,-0.1
CC(C(=O)NCc1ccc(F)cc1Cl)N1C(=O)COc2ccc(Cl)cc21 (stereo not drawn),0.6,-0.4
COc1ccc(N2CCN(C(=O)CCc3c(C)nc4cc(-c5ccccc5)nn4c3C)CC2)cc1,0.94,-1.9
O=S(=O)(c1ccc(Br)cc1)n1c(/C=C/c2ccccc2Cl)nc2ccccc21,1.1,2.5
Cc1cccc(CC(=O)N2CC(=O)Nc3ccc(C)cc3C2c2ccc(F)cc2)c1 (stereo not drawn),0.9,-0.96

# Next section:
SMILES,CBX7 inh,CBX7 inh z-score
CCOCCCNC(=O)c1ccc2c(c1)N(Cc1ccc(Cl)cc1)C(=O)c1ccccc1S2,0.57,-8.5
Cc1cc(Br)ccc1NC(=O)C1c2ccccc2C(=O)N2CCc3ccccc3C12 (stereo not drawn),0.95,-0.89
CC1CCC(NC(=O)c2cccc(NC3=NC4CS(=O)(=O)CC4S3)c2)CC1 (stereo not drawn),0.79,-2.3
CCOC(=O)c1cnc2c(ccc3ccccc32)c1Nc1ccc(C(=O)OC)cc1,1.1,1.8
Cc1[nH]c2c(Cl)cccc2c(=O)c1CN(C)Cc1ccccc1,1,1.1
COc1ccc(C(=O)c2nocc2C(=O)c2cccs2)cc1,1,-0.045
Cc1cc(N2CCN(C)CC2)nc2ccc(NC(=O)CCC(=O)N(C)C3CCCCC3)cc12,1.1,1.1
CCCN1Cc2cccc(C(=O)Nc3ccccc3C#N)c2C1=O,1,0.05
Cc1csc(NC(=O)C2=CCN(S(=O)(=O)c3ccccc3)CC2)n1,1,1.3
O=C(NCc1ccc2c(c1)OCO2)c1cccc2c1C(=O)N(Cc1cccnc1)C2,0.97,-0.034
CCc1ccc(-c2nc3cc(NC(=O)c4cc5ccccc5cc4OC)ccc3o2)cc1,1.1,4.5
CCOCCCNC(=O)c1oc2ccc(S(=O)(=O)N3CCC(C)CC3)cc2c1C,0.97,-0.87
Cc1cc(-c2cc(C(=O)O)c3cc(Br)ccc3n2)c(C)s1,1.1,0.12
Cc1ccccc1Cn1nc(C)c(NC(=O)c2noc3c2CCCCC3)c1C,0.97,-0.64
CCOC(=O)c1nnn(-c2nonc2N)c1CN1CCCCC1,1.1,2.2
O=C(NCCCN1CCOCC1)c1cc(-c2cccc(Cl)c2)on1,1,0.9
O=C(Nc1nc2ccc(F)cc2s1)c1ccccc1Oc1ccccc1,1,-0.14
O=C(Cn1nc(Cc2ccncc2)c2ccccc2c1=O)Nc1ccc2c(c1)OCO2,1,0.2
Cc1ccc2nc(N3CCC(C(=O)NCc4ccc(F)cc4)CC3)sc2c1,1,0.54
COc1ccc(NC(=O)CC(C)Cc2ccc(C)cc2)cc1 (stereo not drawn),1.1,1.9
Cc1cccc(N2CCN(C(=O)CCc3nc4ccccc4[nH]3)CC2C)c1 (stereo not drawn),1,1
O=C(Cn1ccc2ccccc2c1=O)NCCCN1CCCC1,1.1,1
CCOC(CNC(=O)c1ccc2c(c1)ncn2-c1ccc(OCc2ccccc2)cc1)OCC,0.92,-1
COc1ccccc1-n1cnc2cc(NCc3ccc(C(C)C)cc3)ccc21,0.2*,-5*
Cc1ccc(-c2nnc(Nc3ccc(O)cc3)c3ccccc23)cc1S(=O)(=O)N1CCOCC1,0.68,-6.1

# Reprinted from the part before: 5 entries, followed by the next part.
SMILES,CBX7 inh,CBX7 inh z-score
Cc1cccc(N2CCN(C(=O)CCc3nc4ccccc4[nH]3)CC2C)c1 (stereo not drawn),1,1
O=C(Cn1ccc2ccccc2c1=O)NCCCN1CCCC1,1.1,1
CCOC(CNC(=O)c1ccc2c(c1)ncn2-c1ccc(OCc2ccccc2)cc1)OCC,0.92,-1
COc1ccccc1-n1cnc2cc(NCc3ccc(C(C)C)cc3)ccc21,0.2*,-5*
Cc1ccc(-c2nnc(Nc3ccc(O)cc3)c3ccccc23)cc1S(=O)(=O)N1CCOCC1,0.68,-6.1
O=c1c2c(nc3c(-c4ccccc4)c(-c4ccccc4)[nH]n13)CCC2,0.97,-0.94
O=C(NCCCN1CCOCC1)c1cn(-c2ccc(F)cc2F)c(=O)c2ccccc12,1,1.6
COc1ccc(CNC(=O)c2ccc3c(c2)N(Cc2c(F)cccc2Cl)C(=O)CS3)cc1,1.1,0.1
COc1ccc2nc(NC(=O)c3cn(CC(C)C)c(=O)c4cc(OC)c(OC)cc34)sc2c1,1.1,2.7
Cc1[nH]c2ccc(-c3nnc(SCC(N)=O)n3-c3ccccc3)cc2c1C,0.97,-0.9
COc1ccccc1-c1cc2nc(C)c(CCC(=O)Nc3ccc(Br)c(C)c3)c(C)n2n1,0.95,-1.3
Cn1c(C2CC(=O)N(Cc3ccccc3)C2)nc2ccccc21 (stereo not drawn),1.1,0.41
CCC(=O)N1CCc2cc(S(=O)(=O)NC(CC(C)C)C(=O)Nc3cccc(OC)c3)ccc21 (stereo not drawn),1,0.57
COc1ccc(C2=NOC(C(=O)Nc3cccnc3Cl)C2)cc1 (stereo not drawn),1.1,2.2
Cc1nc(N2CCN(c3ccccc3F)CC2)c2c3c(sc2n1)CCCC3,0.77,-6.2
O=C(C1CCC1)N1CCc2cc(S(=O)(=O)NCCc3ccccc3)ccc21,0.98,-0.46
COc1ccc(NC(=O)c2cc(C(C)C)on2)cc1,0.99,-0.13
COc1ccc(-c2nc(CS(=O)(=O)CC(=O)NCCCN3CCCC3=O)c(C)o2)cc1,1.1,0.87
Cn1cnc2cc(NCc3nc4ccccc4n3Cc3ccccc3)ccc21,0.88,-6.1
COc1ccccc1CNC(=O)c1n[nH]c(=O)c2ccccc12,1.1,0.44
c1cncc(-c2nc(N3CCCC3)c3ccccc3n2)c1,1.1,1.8
Cc1cccc(OCC(=O)Nc2ccc(-c3nc4ccc(C)cc4s3)cc2)c1,1,0.012
Cc1ccc(-n2c(Cc3cccn3C)nnc2SCC(=O)NCc2ccc3c(c2)OCO3)cc1,0.84,-3.9
COc1ccccc1-n1cc(-c2ccc(C)cc2)nc1S(=O)(=O)CC(=O)Nc1ccc(F)cc1,1.1,0.89
Cn1c(=O)c(Cc2ccc(F)cc2)nc2ccccc21,0.99,-0.39
O=C(Nc1cccc(Br)c1)c1cnc2sccn2c1=O,0.9,-1.2
CCC1Oc2ccccc2N(CC(=O)NCCCN2CCc3ccccc3C2)C1=O (stereo not drawn),1.1,1.5
Cc1nnc(NC(=O)CSc2nnc(CNC(=O)COc3ccc(Cl)cc3)o2)s1,0.85,-2.3
Cc1cc(N)n2nc(-c3ccc(Br)cc3)cc2n1,0.87,-2.4
Cc1ccc(NC(=O)CSc2nc3ccccc3[nH]2)c(C)c1,1.1,1.9

# Additional compounds.
SMILES,CBX7 inh,CBX7 inh z-score
COc1ccccc1Nc1cc(C(=O)NCCN(CC(C)C)CC(C)C)c2ccccc2n1,1.4,0.35
O=C(Nc1cc2c(cc1C(=O)c1ccccc1Cl)OCCO2)c1ccccc1,0.79,-1.3
Cc1sc2ncn(CC(=O)NCC(=O)Nc3ccccc3F)c(=O)c2c1C,1,-0.11
O=C(Nc1c(-c2ccccc2)nc2ccccn12)c1cc(Br)ccc1Cl,0.85,-1.2
O=c1[nH]c(NCCCO)nc2c1C1(CCCCC1)Cc1ccccc1-2,1,0.56
Cc1cc2cc(CCNC(=O)c3cccc(F)c3)c(=O)[nH]c2cc1C,1,0.82
CC(=O)NCCCc1nc2ccccc2n1C(C)C,1,0.037
COc1ccc(C(=O)NCc2nnc(SCC(=O)Nc3cc(C)cc(C)c3)o2)cc1OC,1.1,2.5
CCOC(=O)c1sc2ncnc(NCCCN3CCOCC3)c2c1C,0.99,-0.24
COc1ccc2nc(N3CCC(C(=O)N4CCC(C)CC4)CC3)sc2c1,0.96,-0.4
O=C1C2CCCC1C(c1ccccc1)NC2c1ccccc1 (stereo not drawn),1,0.084
CC1CCCCN1CCNC(=O)CC1Oc2ccccc2NC1=O (stereo not drawn),1.3,1.9
c1csc(CNc2nc3ccccc3n2CCN2CCCCC2)c1,0.92,-0.49
Cc1ccc(-c2cc(C(F)(F)F)n3nc(C(=O)Nc4ccc(C#N)cc4)cc3n2)cc1,0.78,-2.9
NC(=O)COc1ccc(Nc2nnc(-c3ccccc3)c3ccccc23)cc1,0.74,-4.9
COc1ccc(C2CC(=O)c3c([nH]c(C(=O)OCc4ccccc4)c3C)C2)cc1 (stereo not drawn),0.96,-0.5
COc1ccccc1C1CC(=O)Nc2cc3c(cc21)OCO3 (stereo not drawn),0.66,-3.4
CCCCCCCNC(=O)c1cc(=O)[nH]c2ccc(S(=O)(=O)N3CCCCC3C)cc12 (stereo not drawn),1.1,5
O=C(Cn1nc(Cc2cccnc2)c2ccccc2c1=O)N1CCN(C2CCCCC2)CC1,0.91,-0.13
COc1ccc(CCN2C(=O)CC(Cc3cc(C)cc(C)c3)C2=O)cc1OC (stereo not drawn),0.98,-0.23
O=C(CN1C(=O)CCSc2ccccc21)NCC1CCCO1 (stereo not drawn),1,0.72
Cc1ccc(OCC(=O)Nc2cc(-c3nc4ncccc4o3)ccc2C)c(C)c1,1&1.1,0.024&1.2
O=C(NCCCc1ccccc1)C1CCN(c2ccc(N3CCOCC3)nn2)CC1,0.94,-0.42
COCCCNC(=O)CC1Oc2ccc(C)cc2NC1=O (stereo not drawn),1,1.2
CCOc1ccc(-c2cc(C(=O)NCc3ccc(C)cc3)c3ccccc3n2)cc1,1.1,1.8

# Grouped by structure: the entries above with a furan ring, fused or not (2)
SMILES,CBX7 inh,CBX7 inh z-score
COc1ccc(CN(C(=O)c2oc3cc(C)ccc3c2C)C2CCS(=O)(=O)C2)cc1 (stereo not drawn),0.85,-1.7
CCOCCCNC(=O)c1oc2ccc(S(=O)(=O)N3CCC(C)CC3)cc2c1C,0.97,-0.87

# An excerpt from above in order of the CBX7 inh z-score value, falling.
molecule | CBX7 inh z-score
COc1ccccc1Nc1cc(C(=O)NCCN(CC(C)C)CC(C)C)c2ccccc2n1 | 0.35
O=C1C2CCCC1C(c1ccccc1)NC2c1ccccc1 (stereo not drawn) | 0.084
Cc1sc2ncn(CC(=O)NCC(=O)Nc3ccccc3F)c(=O)c2c1C | -0.11
O=C(Cn1nc(Cc2cccnc2)c2ccccc2c1=O)N1CCN(C2CCCCC2)CC1 | -0.13
COc1ccc(CCN2C(=O)CC(Cc3cc(C)cc(C)c3)C2=O)cc1OC (stereo not drawn) | -0.23
COc1ccc2nc(N3CCC(C(=O)N4CCC(C)CC4)CC3)sc2c1 | -0.4
O=C(Nc1cc2c(cc1C(=O)c1ccccc1Cl)OCCO2)c1ccccc1 | -1.3

# Next results follow:
SMILES,CBX7 inh,CBX7 inh z-score
CCCCNC(=O)c1c[nH]c2ccc(S(=O)(=O)N3CCCC(C)C3)cc2c1=O (stereo not drawn),0.91,-0.99
Cc1ccc(-c2nnc(Nc3cccc(O)c3)c3ccccc23)cc1S(=O)(=O)N(C)C,0.54,-8.6
COC(=O)c1ccc(NC(=O)c2c(NCc3cccc(OC)c3)sc3c2CCCC3)cc1,0.79,-11
O=C(NCc1ccc2c(c1)OCO2)c1cc(-c2cccs2)nc2ccccc12,1,1.7
CCOc1ccc2[nH]cc(S(=O)(=O)c3ccccc3)c(=O)c2c1,1.1,2.1
Cc1ccc(Nc2nc3ccccc3nc2-n2nc(C)cc2C)c(Cl)c1,2,22
COc1ccc(C(=O)NCc2nnc(SCC(=O)Nc3nccs3)o2)cc1OC,0.83,-5.9
COc1cc(C(=O)NCc2nnc(SCC(=O)NCc3ccccc3)o2)cc(OC)c1OC,0.94,-0.91
Cc1ccc(-n2ncc(C(=O)Nc3ccccc3C#N)c2C2CCN(C(=O)OC(C)(C)C)CC2)cc1C,0.9,-4
O=C(Cc1ccc(Cl)cc1)Nc1ccc(S(=O)(=O)Nc2cnc3ccccc3n2)cc1,0.96,-0.42
CC(NC(=O)C1CCCN(c2nc3ccccc3[nH]2)C1)c1ccccc1 (stereo not drawn),0.94,-0.68

# Not all compounds are listed; the hit share may differ from the screen's.
